Bioassay records: PubChem BioAssay, National Center for Advancing Translational Sciences (NCATS)
PINK1 modulator: A Quantitative High throughput Screen to Identify Chemical Modulators of PINK1 Expression; PINK1 immunofluorescence, high-content cytometry, 24 h; 410,000 tested, 0.2% active; Potency, µM (doses to about 76.6 µM), for inactives: at the highest dose activation (PINK1 increase), usual class: activators; active = well fitted activation curve with a large enough effect; inconclusive = small, poorly fitted or top-dose-only effect; inactive = flat fitted curve, though single readings scatter; cell line not stated here;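 also: potency is read from the fitted curve at half-maximal effect; % of control where 0% means no effect; nearly all actives have a fitted effect of over 65% in size; a mitochondrial uncoupler was the plate control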
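Stable cell line treated 24 h with compounds at 5 concentrations (CCCP controls), then fixed and immunostained for PINK1 plus nuclear and cell stains; PINK1 immunofluorescence quantified by laser-scanning microplate cytometry.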
D2 potentiator: Beta-Arrestin HTS for Positive Allosteric Modulators of the Human D2 Dopamine Receptor: Potentiators | D(2) dopamine receptor (Homo sapiens), P14416 | DiscoveRx D2 beta-arrestin cells, luminescence, 90 min; 100% = 57 uM dopamine signal | potentiation, % (concentration not given with the values) | 360,000 tested, 0.23% active | AID 624464, 2012; active = potentiation of 50% or more; inconclusive = 30% to 50%; inactive = 30% or less;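 also: compound concentration not given in the record; tested on top of an EC20 dose of dopamine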
Target sequence (P14416 whole entry, looked up): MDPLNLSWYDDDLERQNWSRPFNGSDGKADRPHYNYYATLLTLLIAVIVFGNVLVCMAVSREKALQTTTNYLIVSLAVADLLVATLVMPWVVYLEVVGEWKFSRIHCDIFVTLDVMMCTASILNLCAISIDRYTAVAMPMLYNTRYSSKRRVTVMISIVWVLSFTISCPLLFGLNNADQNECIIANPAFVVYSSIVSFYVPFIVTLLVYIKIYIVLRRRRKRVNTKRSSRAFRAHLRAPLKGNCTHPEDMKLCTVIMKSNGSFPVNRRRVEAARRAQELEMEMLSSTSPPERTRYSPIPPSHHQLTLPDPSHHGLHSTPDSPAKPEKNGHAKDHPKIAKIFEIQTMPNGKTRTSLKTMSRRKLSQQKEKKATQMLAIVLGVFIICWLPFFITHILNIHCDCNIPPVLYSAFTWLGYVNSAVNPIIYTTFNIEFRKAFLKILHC
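D2 cells co-treated with compound plus 50 nM dopamine (EC20) for 90 min at 37 deg C to detect potentiation. Beta-arrestin recruitment was read as enzyme-fragment luminescence after 1 h at ambient temperature. Full response was set by 57 uM dopamine.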
D2 ag: Beta-Arrestin HTS for Positive Allosteric Modulators of the Human D2 Dopamine Receptor: Agonists; D(2) dopamine receptor (Homo sapiens), P14416; DiscoveRx PathHunter D2 beta-arrestin, luminescence, 90 min; 100% = 57 uM dopamine signal; activation, % (test concentration not listed); 360,000 tested, 0.084% active; AID 624465, 2012; in the data active = activation above about 40%; inconclusive = about 15% to 40%; inactive = below about 15%; also: compound concentration not given in the record; the text of the record calls up to 30% inactive
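DiscoveRx PathHunter D2 beta-arrestin cells (2,100/well) attached overnight, then compound-stimulated 90 min at 37 C in HBSS/10 mM HEPES/0.1% Tween-20 buffer; beta-galactosidase complementation read by luminescence after 1 h at ambient temperature. Dopamine 57 uM final (EC100) as control.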
TRPML1 ag: qHTS for Agonists of the Human Mucolipin Transient Receptor Potential 1 (TRPML1); Mucolipin-1 (Homo sapiens), Q9GZU1; TRPML1-expressing cells, Ca2+ dye fluorescence, FDSS; host cell line not named in the record; reference of the full effect not given here; activation, % (test concentration not listed); 410,000 tested, 0.12% active; in the data active = activation above about 50%; inconclusive = about 30% to 50%; inactive = below about 30%; also: 0% is about no effect; the text of the record puts the active cut at 80%
Target sequence (Q9GZU1 whole entry, looked up): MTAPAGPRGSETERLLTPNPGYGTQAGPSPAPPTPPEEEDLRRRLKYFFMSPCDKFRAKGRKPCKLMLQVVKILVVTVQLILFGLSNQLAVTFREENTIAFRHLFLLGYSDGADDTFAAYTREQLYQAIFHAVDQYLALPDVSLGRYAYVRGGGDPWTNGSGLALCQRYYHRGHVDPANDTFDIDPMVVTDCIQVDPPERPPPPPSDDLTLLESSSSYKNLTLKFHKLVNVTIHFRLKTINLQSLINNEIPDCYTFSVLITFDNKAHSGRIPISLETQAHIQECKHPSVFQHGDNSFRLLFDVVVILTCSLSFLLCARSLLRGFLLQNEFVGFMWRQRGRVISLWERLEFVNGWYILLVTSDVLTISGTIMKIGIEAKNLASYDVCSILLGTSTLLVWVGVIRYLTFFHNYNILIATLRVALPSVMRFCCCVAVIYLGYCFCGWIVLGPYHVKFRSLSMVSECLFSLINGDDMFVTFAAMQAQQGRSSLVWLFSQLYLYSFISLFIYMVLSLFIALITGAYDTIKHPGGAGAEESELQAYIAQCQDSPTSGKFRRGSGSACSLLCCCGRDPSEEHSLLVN
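TRPML1-DL cells, Tet-induced overnight (~16 h, 37 degrees C), loaded 45-90 min at room temperature with Ca8 no-wash calcium dye plus quencher. FDSS fluorescence: 10 s baseline, compound pin-transfer, 110 s agonist read, then EC80 54-4 (4uM final) and 110 s antagonist read.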
Six1-Eya2 inh: qHTS Assay for Inhibitors of the Six1/Eya2 Interaction; Homeobox protein SIX1 (Homo sapiens) + Protein phosphatase EYA2 (Homo sapiens), …; AlphaScreen GST-Six1/His-Eya2 binding, biochemical; stronger effect = lower value; control for the full effect not named in the record; activity change, % (test concentration not listed); 360,000 tested, 0.56% active; AID 651725, 2012; in the data active = activity change below about -65%; inconclusive = about -30% to -65%; inactive = above about -30%; also: % is scaled to controls: 0 for no effect and ±100 for the full control effect; compound concentration not given in the record
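AlphaScreen with GST-Six1 and His-Eya2 (5X mix: 250 nM and 500 nM), glutathione donor and nickel acceptor beads; buffer 50 mM Tris pH 8.0, 300 mM NaCl, 1 mM TCEP; 1 h at 37 C in the dark.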
CtBP-E1A blk: qHTS Assay for Inhibitors of the CtBP/E1A Interaction; AlphaScreen GST-E1A/His-CtBP binding, 1536-well; stronger effect = lower value; control for the full effect not named in the record; activity change, % (concentration not given with the values); 340,000 tested, 0.49% active; AID 651724, 2012; in the data active means activity change below about -65%; inconclusive means about -30% to -65%; inactive means above about -30%; also: % is scaled to controls: 0 for no effect and ±100 for the full control effect
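Protein mix (5X: 125 nM each GST-E1A, His-CtBP) was incubated with pinned compound 2 h at 37 deg C in dark, in 50 mM Tris pH 8.0 buffer with 300 mM NaCl. Glutathione donor and nickel acceptor beads followed; AlphaScreen signal read after 1 h.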
Starred values were filed as active, the others as inactive; ? = inconclusive; . = no result given; & = joins results of further samples; [ ] = dose if it differs, or a comment.

Molecule	PINK1 modulator	Six1-Eya2 inh	TRPML1 ag	D2 potentiator	D2 ag	CtBP-E1A blk
CCc1[nH]nc2c1C(c1ccsc1)C(C#N)=C(N)O2 (stereo not given)	2.2%	-8	-0.4	-11	-1.6	3
N#Cc1ccc(S(=O)(=O)N2CCN(CN3C(=O)CC4(CCCC4)C3=O)CC2)cc1	3.2%	1	0.2	2	2.0	0
COc1ccccc1N1CCN(C(=O)CCNC(=O)c2ccco2)CC1	0.6%	-1	0.0	-1	-1.7	0
CC1CCc2c(C(=O)Nc3ccccn3)csc2C1 (stereo not given)	5.5%	7	.	-15	-1.5	1
Cn1c(-c2ccccc2)cnc1SCc1nc2ccccc2c(=O)[nH]1	-2.0%	-10	0.5	-13	-3.5	-7
COc1ccc(CNC(=O)Cc2cccs2)cc1OC	0.3%	6	-1.3	-7	-0.3	7
CCOc1ccccc1NC(=O)C1CCCC1	2.7%	0	1.3	1	2.9	15
Cc1ccc(S(=O)(=O)N2CCN(C(=O)c3ccc4c(c3)OCO4)CC2)cc1	-1.4%	1	-0.4	-3	-5.9	0
Cc1cc(C(=O)Nc2cccc3ccccc23)oc1C	1.4%	-1	-0.1	-4	-3.9	4
COc1cc2c(cc1OC)C(c1ccccc1Cl)N(C)CC2 (stereo not given)	0.8%	-5	0.4	-2	-1.2	-1
O=C(NCc1nnnn1-c1ccccc1)c1ccc2ccccc2c1	-0.6%	-5	-0.8	-14	0.2	8
Cc1c(NS(=O)(=O)c2cc(C(=O)NCc3cccc(Cl)c3)ccc2Cl)c(=O)n(-c2ccccc2)n1C	0.4%	-2	0.7	6	1.2	-3
COc1ccc(N2CCN(C(CNC(=O)C(=O)NCC(OC)OC)c3ccco3)CC2)cc1 (stereo not given)	0.6%	5	-0.4	-2	-4.2	3
CC1(C)CC(=O)C2=C(C1)Nc1ccccc1NC2c1cccc(F)c1 (stereo not given)	-0.9%	0	0.0	-5	-5.4	1
CCOc1ccccc1-n1c(CNc2ccc(F)cc2)nnc1SCC(=O)NCc1ccco1	-0.4%	-13	4.0	-1	-6.1	-24
Cc1ccnc(NS(=O)(=O)c2ccc(NC(=O)c3ccc(Cl)cc3[N+](=O)[O-])cc2)n1	0.9%	0	-0.1	-1	-2.6	-12
COc1ccc(C(=O)N2CCCC(CCC(=O)NCc3ccccc3F)C2)c(OC)n1 (stereo not given)	-1.5%	5	-1.1	-17	-3.5	11
COCC(C)NC(=O)C1CC(c2cccc(Br)c2)=NO1 (stereo not given)	-0.7%	7	0.8	-2	0.5	-9
CC(=O)Nc1ccc(NC(=O)COC(=O)c2cc(S(=O)(=O)N(C)C)ccc2N2CCCC2)cc1	2.3%	-1	-0.6	-5	-7.9	-10
O=C(CSc1nc(O)cc(=O)n1-c1ccccc1)NCc1ccccc1	1.9%[38.3 µM]	-4	3.1	-7	1.5	-3
CCN(C(=O)COC(=O)COc1ccccc1Cl)c1c(N)n(Cc2ccccc2)c(=O)[nH]c1=O	0.5%	4	-0.4	2	2.5	3
Clc1ccc2c(N3CCOCC3)ccnc2c1	0.8%	-2	-0.6	-3	5.0	3
O=C(Nc1ccc(N2CCCC2)c(S(=O)(=O)Nc2cccc(C(F)(F)F)c2)c1)c1cccs1	?	-8	2.4	7	2.4	-6
CC(C)NCc1nnc(-c2ccccc2Cl)o1	1.6%	-5	-0.1	-6	-4.9	.
Cc1nnc(SCC2=C(C(=O)O)N3C(=O)C(NC(=O)Cn4nc(C)c(Cl)c4C)C3SC2)s1 (stereo not given)	1.3%	0	-0.7	-2	2.5	7
Cc1ccc(OCCOCCNC(C)C)c(Br)c1	0.1%	4	-0.5	-24	0.4	3
O=C(c1ccccc1)[C@@H]1[C@@H](C(=O)c2ccc(F)cc2)[C@@]2(C(=O)Nc3ccccc32)[C@H]2c3ccccc3C=CN12	-0.5%	-3	0.5	1	-4.1	7
Cc1nc2ccc(C(=O)N/N=C/c3ccc(O)cc3)cc2[nH]1	-0.2%	-5	-0.3	-1	-1.2	-6
COc1ccc(-c2csc(Nc3ncccc3C)n2)cc1	1.3%	-8	-1.2	-2	-0.4	0
c1ccc(Nc2cccc(Nc3ccccc3)n2)cc1	4.5%	-16	0.8	-2	-0.1	-12
CCOC(=O)c1ccc(NC(=S)N(CCCN2CCCC(C)C2)Cc2cccs2)cc1 (stereo not given)	13%	-10	0.3	-28	-2.9	-4
Cc1cc(S(=O)(=O)Nc2ccc3c(c2)COC3=O)ccc1F	0.9%	16	-0.2	4	-1.0	0
Cc1cccc(NC(=O)NCC(F)(F)F)n1	7.9%[38.3 µM]	0	-0.4	-2	0.3	2
O=C(NCO)c1cccnc1	-0.2%&-0.1%	2	.	-11	-1.9	5
CCOC(=O)C(C(=O)c1ccccc1)C(c1ccccc1)c1nccc2ccccc12 (stereo not given)	0.9%	-5	0.7	-11	-3.6	-1
CCCCn1c(SCC(=O)NCc2ccc(OC)c(C(=O)O)c2)nc2cc(S(N)(=O)=O)ccc21	0.7%	-2	-0.6	1	1.6	2
CC(O)CNc1nc2c(c(=O)n(Cc3ccccc3)c(=O)n2C)n1C (stereo not given)	-1.0%	-14	-1.1	-7	-4.3	6
Cc1ccc(CNC(=O)CCCn2nc(C)n3ccnc3c2=O)cc1	-0.4%	0	-0.1	0	2.5	3
Cc1nc(C/C(=N\Nc2ccccc2)c2ccc(O)cc2O)cs1	13%	-10	-0.3	-10	-4.5	-3
CCC(C)COC(=O)C(C#N)c1nc2ccccc2nc1N1CCCCC1 (stereo not given)	14%	-3	-0.6	-10	-3.2	2
COc1ccc(-n2nnnc2C(c2ccccc2)N2CCN(C/C=C/c3ccccc3)CC2)cc1 (stereo not given)	1.1%	-24	-0.2	-17	-4.7	?
Cc1ccc(-n2ncc3c(NCc4ccc5c(c4)OCO5)ncnc32)c(C)c1	1.6%[38.3 µM]	-6	2.0	9	-1.0	-6
O=C(NCCCN1CCOCC1)c1cc2ccccc2oc1=O	.	2	-0.2	-6	0.5	3
COc1ccc(C(=O)Nc2cc(C(C)=O)c(C)oc2=O)cc1	7.0%	6	0.8	-6	-1.5	2
COc1ccc2nc(SCC(=O)NC3(C#N)CCCCC3)[nH]c2c1	?	-4	-0.1	-12	-2.6	-2
N#C/C(=N/O)c1nc(-c2ccc(F)cc2)cs1	0.4%	-7	-0.2	11	3.2	8
O=C(OCC(=O)N1CCOCC1)c1cccc(S(=O)(=O)N2CCCc3ccccc32)c1	1.9%	-1	.	1	-0.7	3
COc1ccc(C(=O)Nc2ccccc2C(=O)O)cc1NC(=O)C(c1ccccc1)c1ccccc1	0.6%	-5	1.7	-6	2.6	-2
Cc1cc(CNC(=O)Cc2ccccc2)c2ccccc2n1	0.5%	2	-1.2	-16	-1.0	17
CCCC(=O)N1CCN(c2nnc(-c3ccccc3)c3ccccc23)CC1	-0.9%	-6	1.0	-5	-6.3	-17

The results go on.
Molecule	PINK1 modulator	Six1-Eya2 inh	TRPML1 ag	D2 potentiator	D2 ag	CtBP-E1A blk
N#Cc1c(SCC(=O)Nc2nccs2)nc2c(c1-c1ccco1)CCCC2	4.4%	-2	-0.6	-2	-1.2	-2
CC(=O)c1cccc(N(CC(=O)NC2CCCC2)C(=O)CNC(=O)c2cccs2)c1	4.7%	-1	-0.8	-4	-5.6	13
CCN1CCN(Cc2cccc(Oc3ccc(Cl)cc3)c2)CC1	-0.3%[38.3 µM]	-10	1.0	-29	-1.9	-8
CCCC(C)C(=O)Nc1cc(S(=O)(=O)N2CCCCC2)ccc1N1CCOCC1 (stereo not given)	0.3%	0	0.4	-2	-3.0	-1
Cc1ccc(S(=O)(=O)Nc2csc(C)c2C(=O)O)cc1	0.9%	-22	0.2	5	2.6	-3
COC(=O)[C@H]1C[C@@H](c2ccccc2)[C@H](C)C1(C)C	9.3%	11	-0.9	-15	-1.8	4
CCc1ccc(NC(=O)CNC(=O)c2cn(-c3ccccc3OC)c(=O)c3ccccc23)cc1	-0.6%	-3	2.1	-19	0.9	-3
O=S(=O)(Cc1ccccc1)NCC1CCCO1 (stereo not given)	-0.4%[38.3 µM]	0	-0.6	-14	-1.7	0
COc1ccc(CC(=O)Nc2ccc(N3CCCCC3)cc2)cc1	0.1%	-24	-0.9	0	4.2	17
CCc1c(O)cc(=O)n(-c2ccccc2)c1-c1ccccc1	7.0%	?	0.5	5	-3.6	-3
CC(C)(C)c1cc(C(=O)NNC(=O)Nc2cccc(Cl)c2)n(Cc2ccccc2)n1	19%	-17	1.2	-21	-5.4	-6
Cc1ccnc(NS(=O)(=O)c2ccc(N3C(=O)Nc4ccccc4N3O)cc2)c1	-1.5%	7	0.5	-12	2.2	.
Cc1cc(Br)cn2c(Cc3ccccc3)c(-c3ccco3)nc12	0.1%	-23	0.1	-6	-6.1	-16
O=S(=O)(SC1=NCCN1)c1ccccc1	-1.3%	12	-0.6	-8	-3.9	-4
CC(=O)Nc1nc(C)c(Oc2ccc(Cl)cc2Cl)c(=O)[nH]1	-0.3%	6	-0.6	14	-2.5	2
COc1ccccc1Nc1nc2ccccc2[nH]1	8.7%	-5	-0.3	14	2.6	-1
CCN(CCn1cccn1)C(=O)CC1C(=O)NCCN1CC1CCCCC1 (stereo not given)	1.7%	-5	0.2	-6	-1.8	-3
CC(=O)Nc1ccc(NC(=O)C2CC(=O)N(Cc3ccccc3)C2)cc1 (stereo not given)	-1.1%	-1	-0.2	-4	1.3	7
CCCC[C@@H]1Cc2[nH][nH]c(=O)c2[C@H](c2cccc3ccccc23)O1	5.3%	-11	-1.4	.	.	-3
O=C(c1ccco1)N1CCN(C(c2ccccc2Cl)c2nnnn2CC2CCCO2)CC1 (stereo not given)	-0.6%	13	-0.4	7	-1.2	12
CCN(CC)S(=O)(=O)c1ccc2c(c1)nc(CCC(=O)Nc1ccc3c(c1)OCO3)n2C	2.6%	8	1.4	-15	-3.2	11
CCOc1ccc(OCC(=O)Nc2ccc(OC)cc2)cc1	0.2%	13	-0.3	-3	-1.7	-1
CCOC(=O)C[N+](CC)(CC)CC#Cc1ccccc1	-1.0%	9	0.7	-6	0.5	-3
